# GLA inh pH 4.5: inhibitors of human alpha-galactosidase A at pH 4.5; P06280; purified enzyme, 4-MU-alpha-Gal fluorescence, pH 4.5; activity change, negative = inhibition, % at 105 µM; 230,000 tested, under 10 active; AID 1467; inconclusive = small, poorly fitted or top-dose-only inhibition, or a rising curve; inactive = flat fitted curve, though single readings scatter; no compound was filed as active;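 further: 0% = full activity with enzyme and -100% = basal without enzyme; dose as in the result columns while the protocol names 77 µM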
# Rango-impB inh: Rango-importin beta binding inhibition | Q14974 | Rango CFP/YFP FRET sensor + importin beta, 45 min | Potency, µM (highest dose often 92.2 µM), inactives show at the top dose inhibition of complex formation | hit rate 0.031% among 340,000; active = rising FRET ratio curve, often small or poorly fitted; inconclusive = mostly compound fluorescence or quenching in the first reads; inactive = flat curves in all reads;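 further: potency means the concentration at half of the fitted maximal effect; 0% = DMSO wells and 100% = buffer wells lacking importin beta; nearly all actives have a fitted effect of over 15% in size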
# Target sequence (Q14974 whole entry, looked up): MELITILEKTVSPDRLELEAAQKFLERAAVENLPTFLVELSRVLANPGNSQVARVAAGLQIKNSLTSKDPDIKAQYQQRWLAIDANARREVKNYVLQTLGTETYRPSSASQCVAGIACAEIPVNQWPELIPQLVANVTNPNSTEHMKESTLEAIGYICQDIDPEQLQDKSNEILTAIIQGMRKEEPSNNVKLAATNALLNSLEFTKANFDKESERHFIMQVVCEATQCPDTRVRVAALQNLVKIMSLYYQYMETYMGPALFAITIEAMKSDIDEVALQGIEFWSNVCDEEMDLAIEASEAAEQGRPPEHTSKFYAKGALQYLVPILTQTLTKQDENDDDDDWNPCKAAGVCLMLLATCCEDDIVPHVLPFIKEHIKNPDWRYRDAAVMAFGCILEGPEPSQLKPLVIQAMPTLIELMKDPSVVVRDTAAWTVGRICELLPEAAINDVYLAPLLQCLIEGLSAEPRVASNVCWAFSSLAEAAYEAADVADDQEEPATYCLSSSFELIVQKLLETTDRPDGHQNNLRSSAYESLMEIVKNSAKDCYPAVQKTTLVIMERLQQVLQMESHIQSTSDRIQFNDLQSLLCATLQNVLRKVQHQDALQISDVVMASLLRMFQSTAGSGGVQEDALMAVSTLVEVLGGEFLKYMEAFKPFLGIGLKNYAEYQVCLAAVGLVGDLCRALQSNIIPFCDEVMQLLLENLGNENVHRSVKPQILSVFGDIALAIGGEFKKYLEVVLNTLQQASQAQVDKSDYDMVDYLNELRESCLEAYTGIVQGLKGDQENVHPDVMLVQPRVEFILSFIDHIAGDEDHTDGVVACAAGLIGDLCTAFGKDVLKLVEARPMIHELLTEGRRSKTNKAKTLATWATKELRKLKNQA
#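 FRET biosensor (snurportin 1 IBB flanked by EYFP and cerulean), 50 nM, with compound 5 min, then 0.125 microM importin beta in PBS, 1 mM DTT, 0.02% Tween-20, 0.1% BSA. CFP/YFP ratio read after 45 min at room temperature; pre-read flags interference.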
# Rango release inh: inhibition of RanGTP-driven Rango-importin beta dissociation; Biochemical FRET Rango-importin beta, RanGTP-induced dissociation; Potency, µM (doses to about 46.1 µM), inactives show at the highest dose activity change, negative = inhibition; hit rate 0.071% among 340,000; AID 540253; active means falling FRET ratio curve, often poorly fitted, with flat reads before Ran was added; inconclusive means other falling curves, or compound fluorescence or quenching; inactive means flat or rising ratio curve;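 further: potency means the concentration at half of the fitted maximal effect; % of control where 0% means no effect; nearly all actives have a fitted effect of over 45% in size; -100% = wells without RanGTP and RCC1; the record marks most hits as doubtful in a second field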
#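 FRET read at 45 min, room temperature: inhibitors block the CFP/YFP signal rise when RanGTP (0.6 uM Ran, 2 mM GTP, 0.2 uM RCC1) frees Rango (0.1 uM) from importin beta (0.25 uM). Pre-read after 5 min compound exposure flags interference.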
# miR-21 reporter: miR-21 reporter, rising signal; HeLa miR-21 FLuc reporter, luciferase, 48 h; AID 2288; Potency, µM (doses to about 38.3 µM), for inactives: top-dose reporter change, positive = more light; 340,000 tested, under 10 active; active = well fitted rising curve with a large enough effect; inconclusive = small, poorly fitted or top-dose-only effect; inactive = no such curve, though single readings can be large or run the other way;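 further: % of control where 0% means no effect; miR-21 action dims this reporter so a rising signal means less miR-21 action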
#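 HeLa cells stably expressing CMV-driven firefly luciferase with a downstream miR-21 binding sequence, endogenously expressing miR-21, were treated with titrations (up to about 40uM final) for 48 hours at 37 degree Celsius. Luciferase luminescence was read after lysis.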
# Active calls of the source: *; ? = inconclusive; / = not tested or not shown; & = joins results of further samples; [ ] = dose if it differs, or a comment. Some of the compounds tested; the hit share may differ from the screen's.
SMILES,GLA inh pH 4.5,Rango-impB inh,Rango release inh,miR-21 reporter
COc1ccc(OC)c(NC(=O)c2cc(S(=O)(=O)NCc3ccco3)ccc2F)c1,-13,?,2%,-2%
NC(=NC(=O)c1ccc(Cl)cc1)N1N=CCC1c1ccccc1 (stereo not given),-1,1.2%,-5%,-2%
CN1CC(c2ccc(Cl)c(Cl)c2)[C@@]2(COc3ccccc3C2=O)[C@@]12C(=O)Nc1ccccc12 (stereo not given in full),-11,-3.0%,7%,-2%
O=C(CN1CCN(Cc2ccccc2)CC1)N/N=C/c1cccnc1,1,-1.4%,0%,0%
Brc1ccc(Nc2ncnc3[nH]ncc23)cc1,-5,-1.5%,-11%,-27%
CC1CCCC(C)N1/N=C/c1ccc(Cl)cc1 (stereo not given),-8,0.8%,11%,0%
O=C(O)CCc1n[nH]c(=S)[nH]c1=O,10,4.9%,0%,-6%
O=S(=O)(NC1CCCC1)c1ccc(-n2cnnn2)cc1,/,3.9%,26%,1%
O=C(O)c1cccc2c1C(=O)c1ccccc1C2=O,-6,1.5%,-1%,0%
COc1ccc2c(=O)c(-c3ccc(OC)c(OC)c3)coc2c1,-1,-0.1%,-6%,-51%
Cc1c(C(=O)N/N=C/c2ccc(O)cc2)sc(=S)n1C,-1,-1.1%,-11%,-6%
CCOC(=O)c1c(N)nn(C(=O)C(C)(C)C)c1-c1ccccc1,-6,0.1%,-2%,-1%
CC(C)c1ccc(NC(=O)C2CC(=O)Nc3nc4ccccc4n32)cc1 (stereo not given),7,0.9%,-16%,-17%
CCOc1ccc(NC(=O)CSc2nnc(-c3ccoc3C)n2CC2CCCO2)cc1 (stereo not given),-5,3.8%,-5%,-2%
O=C(CSCc1ccccc1Cl)NN1C(=O)c2ccccc2C1=O,2,4.7%,-20%,-4%
O=C(Nc1nnc(SCc2ccccc2Cl)s1)c1cccc([N+](=O)[O-])c1,-2,2.3%,1%,-4%
COc1ccc([N+](=O)[O-])cc1NS(=O)(=O)c1ccc(C)cc1,4,1.8%,-8%,-1%
Fc1ccc(-c2n[nH]c(=S)n2/N=C/c2c[nH]c3ccccc23)cc1,-2,0.5%,2%,8%
CCN(CC)CCC(=O)N1c2ccccc2Sc2ccc(Cl)cc21,/,-2.2%,11%,/
COc1ccc(/C=N/Nc2cc(C)nc(-n3nc(C)cc3C)n2)c(OC)c1,0,-0.1%,10%,22%
CN(C(=O)c1cc2c(=O)n3ccccc3nc2n1C)C1CCCCC1,/,?,-15%,-55%
COC(=O)NNC(=O)COc1ccc(Br)c(C)c1,-10,2.9%,-11%,0%
Cn1ccnc1Sc1ccc(C=O)cc1[N+](=O)[O-],1,5.0%,5%,1%
Cc1ccc(CNC(=O)c2nnn(-c3cccc(C)c3)c2N)cc1,-6,-1.3%,-6%,-1%
O=C(CCNC(=O)c1ccc([N+](=O)[O-])cc1)Nc1ccc(N2CCOCC2)cc1N1CCOCC1,-3[21.1 µM],1.4%,4%,-1%

# Remaining list, next part:
SMILES,GLA inh pH 4.5,Rango-impB inh,Rango release inh,miR-21 reporter
CCOc1ccccc1OCC(=O)Nc1cc(S(=O)(=O)N2CCCCC2)ccc1OC,/,5.4%,-7%,/
COc1ccccc1CC(=O)N1CCN(c2ccc(F)cc2)CC1,/,3.3%,-9%,/
COc1ccc(C(CCNC(C)c2ccccc2)C(C)C)cc1 (stereo not given),-3,1.4%,0%,13%
Cc1csc(SCC(=O)NCCc2ccc(Cl)cc2Cl)n1,4,5.8%,?,-19%
COc1ccc(CNC(=O)C2CCN(S(C)(=O)=O)CC2)cc1,-8,-2.0%,-4%,0%
CCc1c(O)nc(SCC(=O)Nc2ccc(Br)cc2)n(-c2ccc(C)cc2)c1=O,/,2.1%,-8%,3%
CN(C)S(=O)(=O)c1ccc(C(=O)OCC(=O)NC(=O)NCc2ccccc2)cc1,4,-1.3%,18%,2%
O=C(CSc1c(Cl)cccc1Cl)N1CCC(c2nc3ccccc3s2)CC1,0,-1.7%,2%,10%
O=[N+]([O-])c1ccc(S(=O)(=O)NCC2COc3ccccc3O2)cc1 (stereo not given),/,2.7%,3%,-3%
O=C(Nc1ccccn1)NC1CCS(=O)(=O)C1 (stereo not given),-1,-3.0%,18%,0%
N#Cc1ccc(Cl)cc1NC(=O)COC(=O)c1ccc(S(=O)(=O)N2CCCC2)cc1,2,5.4%,-11%,-1%
O=C(Nc1c2c(nn1-c1ccc(Cl)cc1)CS(=O)(=O)C2)c1ccc2c(c1)OCO2,-13,-4.2%,-14%,1%
CC(=O)NCCC(=O)Nc1ccc(F)cc1C,-3,-6.4%,-3%,-2%
CN(c1ccccc1C(=O)Nc1ccc2c(c1)n(C)c(=O)n2C)S(C)(=O)=O,/,-1.9%,8%,-2%
CCc1ccccc1NC(=O)Cc1cn(C)c2ccccc12,-7,-2.7%,-15%,5%&-3%
CCOc1ncccc1C(=O)N1CCCSC1=Nc1ccc(C(C)=O)cc1,-14,-0.5%,15%,3%
CC(C)(CNC(=O)c1ccc(-c2cccc(C(F)(F)F)c2)o1)N1CCOCC1,/,7.4%,-8%,/
O=C(C1=C[C@H](c2csc3ccccc23)C[C@H](OCc2ccc(CO)cc2)O1)N1CCN(Cc2ccc3c(c2)OCO3)CC1,-7,-1.3%,0%,23%
O=C(NC1CC1)c1ccc(CS(=O)c2ccc(Br)cc2)o1 (stereo not given),/,2.1%,-3%,2%
CC(=O)c1c(C)[nH]c(C(=O)Nc2ccc(Cl)c(S(=O)(=O)N(C)C)c2)c1C,-1,-0.2%,-6%,-51%
COc1ccccc1NC(=O)CSc1nccn1Cc1ccccc1,/,-0.3%,1%,-12%
Cc1ccc(/C=N/N2CCN(Cc3ccccc3)CC2)cc1,2,-1.8%,-7%,-15%
CC(OC(=O)CCC(=O)c1cccs1)C(=O)Nc1ccccc1[N+](=O)[O-] (stereo not given),7,-4.6%,12%,-2%
Cc1ccc(NC(=O)C(C)Sc2nc(=O)cc(N)n2-c2ccccc2)cc1 (stereo not given),2,0.0%,5%,2%&-12%
COc1ccc(OC)c(C(=O)NC(CC(N)=O)c2ccc(NC(C)C)c([N+](=O)[O-])c2)c1 (stereo not given),/,-4.7%,14%,-16%

# Later entries:
SMILES,GLA inh pH 4.5,Rango-impB inh,Rango release inh,miR-21 reporter
N/C(=N\OC(=O)c1ccc(Cl)cc1Cl)c1ccccc1,7,-0.7%,2%,-40%
O=C(CN1CCCCC1)NC(=O)NCc1ccccc1,-10,5.8%,19%,-11%
CCOc1cc(C(=S)N2CCCC2)ccc1OC,/,0.5%,-10%,-8%
O=C1Cc2cc(S(=O)(=O)N3CCCCC3)ccc2N1,/,-0.8%,5%,0%
CC(=O)C(=Cc1cc(C)n(-c2ccccc2)c1C)C(C)=O,-4,-6.3%,19%,-15%
Cc1ccc(C#N)c(SCc2cc3c(cc2Cl)OCO3)n1,11,1.3%,-2%,-5%
O=C(Nc1nc2n(n1)C(c1ccccc1)C=C(c1ccccc1)N2)c1ccco1 (stereo not given),-2,?,?,-2%
O=C(N/N=C/c1ccoc1)c1cccc([N+](=O)[O-])c1,/,-3.2%,-14%,-2%
CCOC(=O)c1nnn(-c2nonc2-n2cccc2)c1CN1CCC(C(=O)OCC)CC1,3,5.1%,-15%,0%
O=C(CN1C(=O)C2CC=C(Cl)CC2C1=O)Nc1ccc(C(=O)O)cc1 (stereo not given),-6,?,-11%,-3%
Cn1cc(CN2CCCC(C(=O)Nc3cccc(-c4cc5ccccc5[nH]4)c3)C2)cn1 (stereo not given),/,3.1%,-20%,10%
CCN(C(=O)COC(=O)c1cc2ccccc2cc1OC)c1c(N)n(Cc2ccccc2)c(=O)[nH]c1=O,/,3.2%,33%,/
COC(=O)c1sc2ccccc2c1NC(=O)c1ccc(S(=O)(=O)N2CC(C)CC(C)C2)cc1 (stereo not given),11,1.7%,10%,-1%
O=C(O)c1ccc2c(=O)n3c(nc2c1)/C(=C/c1ccc(Cl)cc1Cl)CC3,/,0.9%,-5%,-3%
CC(=O)c1ccc(N2CCN(C(=O)c3ccc(Br)cc3)CC2)c(F)c1,2,-0.4%,-2%,0%
OC(C#CCN1CCCC1)c1ccccc1 (stereo not given),0,-0.8%,-13%,-4%
CCCNC(=O)C1(CC2CC(c3ccccc3)=NO2)CCN(C(=O)Cc2ccc(F)cc2)CC1 (stereo not given),/,-0.3%,0%,/
Cc1ccc(C(=O)Nc2cccnc2)cc1Cl,/,2.2%,-11%,-19%
Cc1ccc(S(=O)(=O)N2CCN(C(=O)COC(=O)CC(C)c3ccccc3)CC2)c(C)c1 (stereo not given),/,-0.7%,-2%,/
CCOC(=O)[C@@H]1[C@H]2COc3ccccc3[C@@H]2N2C(=O)N(c3cccc(C)c3)C(=O)[C@@]12C,/,-2.5%,-8%,/
OCCN1CCOCCOc2ccccc2OCCOCC1,/,1.1%,1%,4%
CCOc1ccc(C(=O)OCC(=O)N2CCCC2)cc1,/,-3.6%,-4%,-27%
O=c1c2c([nH]c3ccccc13)C(=C1CCCC1)CC2,2,-1.6%,-6%,0%
CC(=O)c1ccc(OCc2cc(C(=O)NCC3CCCCO3)no2)cc1 (stereo not given),/,1.0%,-3%,-14%
O=C(CS(=O)(=O)Cc1ccccc1)N1CCN(c2cccc(C(F)(F)F)c2)CC1,-22,-2.3%,-5%,-2%

# Next section:
SMILES,GLA inh pH 4.5,Rango-impB inh,Rango release inh,miR-21 reporter
CC(=O)OC(C(=O)NCCN1CCOCC1)c1c(F)cccc1F (stereo not given),6,-1.7%,0%,-1%
CNc1nc(C)c(C(=O)OCc2ccccc2)s1,1,0.8%,2%,-63%
O=C(Cc1ncc(C(F)(F)F)cc1Cl)Nc1cccc(Br)c1,-25,-0.1%,-2%,-2%
CCc1ccc(NC(=O)C(=O)NCC(O)c2ccccc2)cc1 (stereo not given),6,-2.8%,1%,-3%
NS(=O)(=O)c1ccc(NC(=O)CSc2n[nH]c(=O)n2Cc2ccccc2)cc1,/,-2.4%,3%,3%
Cc1cc(NC(=O)c2c(Br)c(C)nn2C)no1,-1,0.5%,2%,3%
Cc1ccc(OC(F)F)c(NC(=O)Nc2cccc(C(F)(F)F)c2)c1,9,2.9%,10%,?
CC(OC(=O)C1CC(=O)N(Cc2ccccc2)C1)C(=O)Nc1cccc(C#N)c1 (stereo not given),/,-1.2%,0%,-1%

# Structural class: the compounds so far with an aryl thioether with sulfur outside any ring (ten)
SMILES,GLA inh pH 4.5,Rango-impB inh,Rango release inh,miR-21 reporter
CCOc1ccc(NC(=O)CSc2nnc(-c3ccoc3C)n2CC2CCCO2)cc1 (stereo not given),-5,3.8%,-5%,-2%
O=C(Nc1nnc(SCc2ccccc2Cl)s1)c1cccc([N+](=O)[O-])c1,-2,2.3%,1%,-4%
Cn1ccnc1Sc1ccc(C=O)cc1[N+](=O)[O-],1,5.0%,5%,1%
Cc1csc(SCC(=O)NCCc2ccc(Cl)cc2Cl)n1,4,5.8%,?,-19%
CCc1c(O)nc(SCC(=O)Nc2ccc(Br)cc2)n(-c2ccc(C)cc2)c1=O,/,2.1%,-8%,3%
O=C(CSc1c(Cl)cccc1Cl)N1CCC(c2nc3ccccc3s2)CC1,0,-1.7%,2%,10%
COc1ccccc1NC(=O)CSc1nccn1Cc1ccccc1,/,-0.3%,1%,-12%
Cc1ccc(NC(=O)C(C)Sc2nc(=O)cc(N)n2-c2ccccc2)cc1 (stereo not given),2,0.0%,5%,2%&-12%
Cc1ccc(C#N)c(SCc2cc3c(cc2Cl)OCO3)n1,11,1.3%,-2%,-5%
NS(=O)(=O)c1ccc(NC(=O)CSc2n[nH]c(=O)n2Cc2ccccc2)cc1,/,-2.4%,3%,3%

# High-throughput results from PubChem.
